Screens (PubChem)
Rango dissoc inh = inhibitors of RanGTP-induced Rango-importin beta complex dissociation; 0.071% of 340,000 active; Biochemical FRET Rango-importin beta, RanGTP-induced dissociation; O95149+P62826; Potency, µM (series often up to 46.1 µM), for inactives: top-dose activity change, negative = inhibition; active means falling FRET ratio curve, often poorly fitted, with flat reads before Ran was added; inconclusive means other falling curves, or compound fluorescence or quenching; inactive means flat or rising ratio curve;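 note: potency is the fitted concentration of half-maximal effect; % of control where 0% means no effect; nearly all actives have a fitted effect of over 45% in size; -100% = wells without RanGTP and RCC1; the record marks most hits as doubtful in a second field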
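Rango FRET biosensor (snurportin-1 IBB flanked by N-terminal EYFP and C-terminal CFP10) at 0.1 uM, with 0.25 uM importin beta in PBS, 1mM DTT, 0.02% Tween-20, 0.1% BSA. 0.6 uM Ran, 2mM GTP and 0.2 uM RCC1 were then added for 45 min at room temperature. Inhibition read as loss of FRET rise.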
GLA inh pH 4.5 = alpha-galactosidase A (human) inhibition, pH 4.5; activity change, negative = inhibition, % at 105 µM; 230,000 tested, under 10 active; purified enzyme, 4-MU-alpha-Gal fluorescence, pH 4.5; P06280; inconclusive = small, poorly fitted or top-dose-only inhibition, or a rising curve; inactive = flat fitted curve, though single readings scatter; no compound was filed as active;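 note: 0% = full activity with enzyme and -100% = basal without enzyme; dose as in the result columns while the protocol names 77 µM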
Rango complex inh = Rango-importin beta binding inhibition; Potency, µM (series often up to 92.2 µM), without a hit: at the highest dose inhibition of complex formation; Rango CFP/YFP FRET sensor + importin beta, 45 min; 0.031% of 340,000 active; active = rising FRET ratio curve, often small or poorly fitted; inconclusive = mostly compound fluorescence or quenching in the first reads; inactive = flat curves in all reads;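 note: potency is the fitted concentration of half-maximal effect; 0% = DMSO wells and 100% = buffer wells lacking importin beta; nearly all actives have a fitted effect of over 15% in size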
Target sequence (Q14974 whole entry, looked up): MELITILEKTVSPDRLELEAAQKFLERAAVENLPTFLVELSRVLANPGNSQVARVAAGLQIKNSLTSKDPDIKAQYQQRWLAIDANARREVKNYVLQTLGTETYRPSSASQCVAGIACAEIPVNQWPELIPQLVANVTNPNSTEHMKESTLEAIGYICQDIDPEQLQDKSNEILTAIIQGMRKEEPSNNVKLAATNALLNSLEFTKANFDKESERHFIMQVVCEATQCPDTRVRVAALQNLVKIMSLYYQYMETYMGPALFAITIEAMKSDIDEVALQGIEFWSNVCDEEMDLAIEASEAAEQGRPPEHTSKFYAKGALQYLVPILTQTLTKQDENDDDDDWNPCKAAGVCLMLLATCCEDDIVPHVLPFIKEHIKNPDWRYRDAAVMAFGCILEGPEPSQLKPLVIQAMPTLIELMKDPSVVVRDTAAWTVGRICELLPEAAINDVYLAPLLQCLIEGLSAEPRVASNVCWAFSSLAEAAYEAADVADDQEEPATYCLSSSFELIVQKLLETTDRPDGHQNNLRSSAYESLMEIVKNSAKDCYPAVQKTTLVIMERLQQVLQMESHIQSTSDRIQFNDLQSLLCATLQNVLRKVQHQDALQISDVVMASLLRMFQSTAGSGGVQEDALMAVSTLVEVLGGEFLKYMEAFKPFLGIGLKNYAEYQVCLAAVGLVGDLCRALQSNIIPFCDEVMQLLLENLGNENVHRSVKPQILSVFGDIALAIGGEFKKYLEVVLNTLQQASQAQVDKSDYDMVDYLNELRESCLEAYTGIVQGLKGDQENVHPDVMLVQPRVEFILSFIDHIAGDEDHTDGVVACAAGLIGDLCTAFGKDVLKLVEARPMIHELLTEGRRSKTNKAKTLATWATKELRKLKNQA
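Inhibition scored from the CFP 486 nm/YFP 530 nm FRET ratio 45 min after adding 0.125 microM importin beta to 50 nM Rango biosensor preincubated 5 min with compound (room temperature, PBS with DTT, Tween-20, BSA). No-importin wells as positive control.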
miR-21 FLuc = miR-21 reporter, rising signal | HeLa miR-21 FLuc reporter, luciferase, 48 h | Potency, µM (doses to about 38.3 µM), without a hit: at the highest dose reporter change, positive = more light | 340,000 tested, under 10 active | AID 2288; active = well fitted rising curve with a large enough effect; inconclusive = small, poorly fitted or top-dose-only effect; inactive = no such curve, though single readings can be large or run the other way;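 note: % of control where 0% means no effect; miR-21 action dims this reporter so a rising signal means less miR-21 action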
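Luminescence from a firefly luciferase reporter carrying a miR-21 binding site downstream, stably expressed under a CMV promoter in HeLa cells that make miR-21 endogenously, reports miRNA modulation after 48 h compound exposure up to approximately 40uM final.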
An asterisk follows results filed as active; ? = inconclusive; nt = no result given; & = joins results of further samples; [ ] = another dose, or the depositor's remark.

miR-21 FLuc | GLA inh pH 4.5 | Rango dissoc inh | Rango complex inh | smiles
-29% | -16 | 15% | 0.9% | Cc1cc(SCC(=O)c2ccc3c(c2)OCO3)nc2ccccc12
nt | nt | -3% | -2.2% | O=C(CN1C(=O)NC(c2ccccc2)(c2ccccc2)C1=O)NCc1ccco1
3% | nt | -9% | 2.8% | CCC(C)c1ccccc1OCC(=O)NN1C(=O)c2ccccc2C1=O (stereo not drawn)
-19% | 9 | nt | nt | Cc1ccc(OCCn2cnc3sc(C(N)=O)c(C)c3c2=O)cc1
22% | 8 | 20% | 0.8% | CCOc1ccc(NS(=O)(=O)c2ccc(OCC)c3ncccc23)cc1
-5% | -2 | 6% | 3.0% | Cc1c(C(=O)N2CCOCC2)oc2ccc(S(=O)(=O)N3CCCC3)cc12
nt | nt | -10% | -2.5% | Nc1c(N(Cc2ccco2)C(=O)COc2ccc(Cl)cc2)c(=O)[nH]c(=O)n1Cc1ccccc1
-16% | -4 | 5% | 3.0% | CCCCSc1ccc2nc(-c3ccc(C#N)cc3)cn2c1
-10% | 8 | 27% | -2.9% | O=C(NNc1ccc([N+](=O)[O-])cc1)C12CC3CC(CC(C3)C1)C2
-2% | 0 | 13% | ? | CNC(=O)C1=C(C)Nc2nc3ccccc3n2C1c1cccc(OC)c1 (stereo not drawn)
nt | nt | -25% | ? | CCN(CC)CCCN1C(=O)C(O)=C(C(=O)c2ccco2)C1c1ccc(C)o1 (stereo not drawn)
-6% | 6 | 10% | -4.5% | O=C1CCCC(O)=C1C=NCc1ccccc1
-2% | -9 | 2% | -1.0% | COC(=O)c1ccccc1OCCOCCOc1cccc2ccc(C)nc12
-2% | nt | -14% | -1.3% | Cc1nnc(N2C(=O)c3ccc(Br)cc3C2=O)s1
nt | nt | 23% | -2.0% | CN(CC(=O)Nc1ccccc1Br)C(=O)CCSc1ccc(F)cc1
1% | 9 | -5% | 2.4% | Cc1ccc(SCc2cc(=O)n(C)[nH]2)cc1
-5% | -8 | 7% | 0.0% | CCC1CCCCN1CCNS(=O)(=O)c1ccc2c(c1)CCN2C(C)=O (stereo not drawn)
1% | 3 | ? | -2.6% | O=C(NCCN1CCOCC1)c1ccc(Cl)cc1[N+](=O)[O-]
-16% | -11 | -16% | 0.8% | O=C(c1ccccc1)c1coc2c1C(=O)c1ccccc1C2=O
nt | nt | 2% | -1.6% | NS(=O)(=O)c1cnccc1Oc1cccc(Cl)c1

New compounds follow:
miR-21 FLuc | GLA inh pH 4.5 | Rango dissoc inh | Rango complex inh | smiles
-18% | -5 | nt | nt | Cc1ccc(C2c3c(oc4ccc(Cl)cc4c3=O)C(=O)N2CCCN2CCOCC2)o1 (stereo not drawn)
0% | nt | 18% | ? | COc1ccc(S(N)(=O)=O)cc1C(=O)NCC(C)(C)N1CCOCC1
1% | -6 | 1% | 1.3% | CCc1ccccc1NC(=O)CN(C)C(=O)CSc1nnc(Nc2ccc(C)cc2)s1
nt | nt | -8% | -1.3% | O=C(COC(=O)c1cccnc1Cl)Nc1ccc(S(=O)(=O)N2CCOCC2)cc1
-1% | nt | 7% | -1.0% | O=C(O)c1ccc(S(=O)(=O)N2CCOCC2)o1
4% | -15 | ? | 0.6% | CCCCOC(=O)c1ccc(NC(=O)c2c(Cl)ccc(Cl)c2OC)cc1
-11% | 1 | 0% | -1.0% | COCCn1c(C)cc(C(=O)COC(=O)c2ccc(-n3nc(C)cc3C)cc2)c1C
-3% | 7 | ? | ? | O=C1C2CC=C(Cl)CC2C(=O)N1CCCCCCN1C(=O)C2CC=C(Cl)CC2C1=O (stereo not drawn)
8% | nt | -2% | -1.1% | COCCCn1c(=O)c2ccccc2n(CC(=O)Nc2ccc3c(c2)OCCO3)c1=O
1% | 2 | 0% | 0.7% | COc1cc(C(=O)NNC(=S)NCc2ccco2)cc(OC)c1OC
-1% | -1 | 13% | -7.6% | CN(C)CCNC(=O)c1ccccc1
0% | -2 | 0% | 0.5% | Cc1ccc(C(=O)NC(NC(=O)c2ccc(C)cc2)C(Cl)Cl)cc1
1% | -14 | -9% | 0.6% | Cc1cc2nccc(-c3ccccn3)n2n1
1% | -13 | 1% | 0.5% | Cc1cc(C)n(-c2ccc(C(=O)Nc3ccc(N4CCOCC4)cc3)cc2)n1
5% | nt | 0% | 3.7% | Cc1ccccc1C(=O)NN1CC(C(=O)OCc2ccc(Cl)c(Cl)c2)CC1=O (stereo not drawn)
-2% | -9 | -7% | -3.5% | O=C(CSc1nnnn1-c1cccc2c1CCCC2)N1CCCC1
4% | nt | -16% | ? | CCn1ccnc1CNC(=O)CC1C(=O)NCCN1Cc1ccc(F)cc1Cl (stereo not drawn)
nt | nt | -12% | 0.4% | O=C(CN1CCN(Cc2ccc3c(c2)OCO3)CC1)Nc1ccc2[nH]c(=O)[nH]c2c1
23% | nt | 14% | 1.9% | COc1ccc(C(=O)NC2CCCc3c2cnn3-c2cccc(C)c2C)c(OC)n1 (stereo not drawn)
-19% | nt | 1% | -2.2% | CC(=O)Cn1cnc2c(cnn2-c2ccccc2)c1=O

Other structures.
miR-21 FLuc | GLA inh pH 4.5 | Rango dissoc inh | Rango complex inh | smiles
-7% | nt | 16% | -1.3% | O=C(c1ccc([N+](=O)[O-])cc1)c1cc2ccc(O)cc2oc1=O
-7% | -1 | 7% | -0.8% | COc1ccccc1N1CCN(S(=O)(=O)Cc2ccccc2Cl)CC1
-1% | nt | 13% | 0.2% | CN(CCOc1ccccc1)C(=O)C1CCN(C(=O)c2ccc(Cl)cc2)CC1
-6% | 4 | -6% | 2.0% | O=C(Nc1ccc(N=Nc2ccccc2)cc1)c1cccc(Cl)c1
-6% | 2 | -9% | -5.2% | CCOc1ccc(C(=O)c2ccc(OCC)c(N)c2)cc1N
-61% | -2 | 1% | ? | S=C(c1ccc(-c2cccc(Cl)c2)o1)N1CCOCC1
-6% | nt | -15% | -0.4% | CCCCn1c(SCC(=O)c2ccc(O)cc2O)nc2cc(S(N)(=O)=O)ccc21
-3% | nt | -1% | -0.5% | O=C(CN(C(=O)CNC(=O)c1ccco1)c1ccc(F)cc1)NC1CCCC1
5% | -4 | -14% | 1.0% | COc1cc(CNC(=O)c2ccc(Cn3nc(C)c(Cl)c3C)o2)cc(OC)c1
1% | -2 | 13% | -4.3% | COc1cc(C)c(S(=O)(=O)NCc2cccs2)cc1C
nt | nt | 1% | -1.9% | c1ccc2oc(-c3nn4c(Cn5cnc6ccccc65)nnc4s3)cc2c1
1% | 11 | 26% | 4.2% | CC(=O)Nc1ccc(NC(=O)CCc2nc3ccccc3c(=O)[nH]2)cc1
2% | 8 | -13% | -2.0% | CCCC(NS(=O)(=O)c1ccc(OC)cc1)C(=O)O (stereo not drawn)
nt | nt | 0% | 1.6% | O=C(COC(=O)c1cc(Br)ccc1O)Nc1ccc2c(c1)OCO2
-3% | 4 | 1% | 3.4% | O=C1CSC(c2cccc(F)c2)N1c1ccc(O)cc1 (stereo not drawn)
-12% | nt | -10% | -0.6% | O=C1c2ccsc2SCCN1Cc1c(F)cccc1Cl
6% | 6 | 27% | -3.8% | CCCCn1nc(C(=O)Nc2cc(S(=O)(=O)N(C)C)ccc2C)c2ccccc2c1=O
4% | 2 | ? | ? | CCN1CCc2c(C#N)c(N3CCCCC3)nc(NCc3ccccc3)c2C1
nt | nt | -4% | 0.1% | Cc1cc(C)nc(SCC(=O)NC(=O)c2ccccc2O)n1
nt | -5 | -1% | 3.7% | COC(=O)C1=C(C(=O)OC)[C@@H]2N(C)c3ccc(OC)cc3[C@@]23C[C@@H](C(=O)OC)N(C(=O)CC(C)C)C3=N1

The results go on.
miR-21 FLuc | GLA inh pH 4.5 | Rango dissoc inh | Rango complex inh | smiles
nt | nt | -18% | 2.6% | O=C(COC(=O)Cc1ccc(Cl)c(Cl)c1)Nc1ccc2[nH]c(=O)[nH]c2c1
nt | nt | -14% | 5.1% | NC(=O)c1ccc(C2SCC(=O)N2CCc2ccccc2)cc1 (stereo not drawn)
1% | 7 | 1% | 1.9% | Cc1cc(C)cc(-n2nnc(C(=O)NCc3ccc(Cl)cc3)c2N)c1
-9% | -10 | 1% | 0.9% | Cc1ccc(SC(C)C(=O)Nc2ccccc2-c2ccccc2)cc1 (stereo not drawn)
-4% | -7 | 12% | 4.3% | COc1cc(NC(=O)COc2ccc(Br)cc2)ccc1NC(=O)C(C)C
-20% | -5 | 11% | -1.5% | COc1ccc(CC(=O)Nc2ccc(N3CCCCC3)cc2)cc1
1% | nt | -11% | 3.5% | CC(C)c1cccc(C(C)C)c1OC(=O)NC(=O)c1c(F)cccc1F
nt | nt | -4% | -0.6% | CC(=O)N1CCN(C(=O)c2ccc(S(=O)(=O)Nc3ccccc3F)cc2)CC1
nt | nt | -3% | 7.2% | CC(OC(=O)[C@@H]1CCCN1C(=O)c1cccs1)C(=O)Nc1cccc([N+](=O)[O-])c1 (stereo partly drawn)
nt | nt | 5% | 2.1% | COC1=CC(=O)OC(c2ccco2)C1 (stereo not drawn)
7% | -2 | 3% | 0.2% | Cc1ccc2c(c1)/C(=C/c1ccco1)C(=O)N2
-28%&-35% | 2 | 18% | -2.9% | O=C(CSCc1ccc(F)cc1)N1CCN(c2ccccc2)CC1
-7% | -6 | -4% | -3.1% | CCCCn1c(=O)[nH]c(=O)c2c1nc(-c1ccccc1F)n2Cc1ccccc1OC
27% | nt | -9% | -2.3% | Cc1cccc(OCC(=O)Nc2ccc3c(c2)nc(CCN2CCN(c4ccccn4)CC2)n3C)c1
-1% | nt | -7% | 3.4% | Cc1cc(C)nc(SC2CC(=O)N(c3ccc(Cl)cc3)C2=O)n1 (stereo not drawn)
5% | -9 | 15% | 3.8% | O=C(c1cc2ccccc2o1)N(C1CC1)C1(C(=O)Nc2ccccc2)CCCC1
-29% | 8 | ? | ? | O=C(CSc1nc2cc(Cl)c(Cl)cc2[nH]1)c1ccc2c(c1)OCO2
1% | -20 | -2% | 0.6% | Cc1nc(CCNC(=O)CC2C(=O)NCCN2Cc2ccc(F)cc2)sc1C (stereo not drawn)
7% | -5 | -24% | 0.9% | CC(C)Sc1nc2c(cnn2-c2ccc(F)cc2)c(=O)[nH]1
-4% | nt | 1% | -2.0% | COC(=O)Cc1c(C)nc(SCc2ccccc2)[nH]c1=O

Reprinted from the part before: 4 entries, followed by the next part.
miR-21 FLuc | GLA inh pH 4.5 | Rango dissoc inh | Rango complex inh | smiles
-29% | 8 | ? | ? | O=C(CSc1nc2cc(Cl)c(Cl)cc2[nH]1)c1ccc2c(c1)OCO2
1% | -20 | -2% | 0.6% | Cc1nc(CCNC(=O)CC2C(=O)NCCN2Cc2ccc(F)cc2)sc1C (stereo not drawn)
7% | -5 | -24% | 0.9% | CC(C)Sc1nc2c(cnn2-c2ccc(F)cc2)c(=O)[nH]1
-4% | nt | 1% | -2.0% | COC(=O)Cc1c(C)nc(SCc2ccccc2)[nH]c1=O
-15% | -3 | 0% | -0.8% | CCOc1c(S(=O)(=O)NC2CC(C)(C)NC(C)(C)C2)ccc(Cl)c1Cl
-7% | -1 | -8% | ? | COc1cc(OC)cc(C(=O)N[C@H](C(=O)Nc2nnc(C3CC3)s2)C(C)C)c1
1% | nt | 1% | -1.2% | COc1ccc(C(=O)Nc2c3c(nn2-c2ccc(Cl)cc2)CS(=O)(=O)C3)cc1
10% | nt | 2% | -8.0% | COc1ccc(-n2c(=S)[nH]c3cc(C(=O)N4CCN(c5ccccc5)CC4)ccc3c2=O)c(OC)c1
-2% | 8 | -10% | 3.6% | CCOC(=O)COc1ccc(N)cc1CC(NC(C)=O)(C(=O)OCC)C(=O)OCC
-4% | -8 | 19% | -4.0% | Cc1cccc(Nc2nc(NCCCN3CCOCC3)nc(N)c2[N+](=O)[O-])c1
0% | nt | -2% | 0.7% | O=S(=O)(c1ccc(F)cc1)N1CCN(C(=S)NCCc2ccccc2)CC1
2% | -10[21.1 µM] | -15% | -8.9% | COc1cc(-n2c(=O)c3ccccc3n(CC(=O)c3ccccc3)c2=O)cc(OC)c1OC
2% | 4 | 4% | 0.4% | Cc1ccc(OC(=O)c2cc3ccccc3o2)cc1

Some of the compounds tested; rates above refer to the full screens.
